Bioassay records: PubChem BioAssay, several laboratories
Mtb hypoxia inh – reduces hypoxia-regulated biosensor signal in M. tuberculosis | hit rate 0.1% among 300,000 | fluorescence inhibition, % (concentration not given with the values) | M. tuberculosis hypoxia-regulated fluorescent reporter, fluorescence | AID 1159583;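 active means 35 to 45% if threefold the growth effect, above 45% if 1.5-fold the growth effect; inactive means the rest, general growth blockers included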;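 further: wells of about 50 µL received 100 nL stock; 0% = vehicle wells and 100% = reference inhibitor wells; whole bacteria with a GFP reporter of the hypoxia response; strong numbers were not always called active; many hits fall short of the cut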
PrP 5UTR inh – suppresses PrP 5' UTR mRNA reporter expression. cell-based PrP 5' UTR mRNA reporter, plate reader. inhibition, % (no concentration beside the values). hit rate 0.35% among 340,000. AID 488862;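 active means every replicate at 50% or more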;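 further: 0 = median of the neutral control wells; tested in H4 reporter cells; numbers are from one replicate; inactives centre near -14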
RN4220 kill – S. aureus RN4220 growth inhibition | inhibition, % (concentration not given with the values) | hit rate 0.33% among 330,000 | OD600, 16 h;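 active means z-score of -3 or lower and OD600 up to 0.18 on both plates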;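 further: plate controls were untreated cells for no effect and reference antibiotic for full effect; stock transfer was 100 nL into about 80 µL; one replicate is shown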
Sa ugtP lethal – kills S. aureus RN4220 lacking UgtP; AID 1259309; S. aureus RN4220 ugtP deletion, OD600 growth, 16 h; some inactives read as strong as hits; growth inhibition, % (concentration not given with the values); hit rate 0.54% among 330,000;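 active means z-score under -3 and OD600 up to 0.15 on both plates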;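 further: plate controls were untreated wells for no effect and antibiotic for full effect; wells of about 80 µL received 100 nL stock; the first replicate is given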
Autofluor counter – flagged as autofluorescent in microsphere protease counterscreen; compound autofluorescence counterscreen, microsphere flow cytometry; stronger effect = higher value; fluorescence intensity (concentration not given with the values); hit rate 3.1% among 360,000;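 active means at least 3 SD above the mean of all compounds, about 16000 in these data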;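 further: 100 nL of 1 mM stock went into each well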
BJeLR viability – BJeLR cell viability loss | BJeLR (HRASV12) viability, CellTiter-Glo ATP luminescence, 48 h; reference of the scale not given here | inhibition, % (concentration not given with the values) | hit rate 0.17% among 300,000 | AID 1554;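 active means replicate mean above 50%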;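 further: 50 nL library stock added to about 25 µL; numbers are from one replicate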
Mtb hypoxia inh growth – recorded beside Mtb hypoxia inh, whose call it bears; growth inhibition, %; measured here: M. tuberculosis growth (absorbance);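 0% = vehicle and 100% = reference antibiotic; read after six days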
An asterisk follows results filed as active; nt = not tested or not shown; & = joins results of further samples.

SMILES	Mtb hypoxia inh	Mtb hypoxia inh growth	PrP 5UTR inh	RN4220 kill	Sa ugtP lethal	Autofluor counter	BJeLR viability
Cc1ccc(-c2cnc3cc(C)nn3c2)cc1	-2	-1	34	3.5	6	4491	23
Cc1cc(C(=O)CN2CCCC2)c(C)n1-c1ccc(Cl)cc1	9	11	-24	14	6	4290	-3
CCOc1ccc(NS(=O)(=O)c2cc(C(=O)N3CCN(C(C)=O)CC3)ccc2Cl)cc1	-9	-3	-13	-5.3	-2	5733	8
CC(O)(CS(=O)(=O)c1cccc(C(F)(F)F)c1)C(=O)Nc1cccc(C(F)(F)F)c1 (stereo not given)	-6	1	-8	2.1	-27	10906	1
CN1/C(=C\C(=O)CSc2nnc(NCc3ccccc3)s2)C(C)(C)c2ccccc21	nt	nt	-32	nt	nt	8382	19
O=C(NC(NC1CCS(=O)(=O)C1)C(Cl)(Cl)Cl)c1cccc(Cl)c1 (stereo not given)	0	-2	-26	-0.5	3	3110	-10
Cc1cc(C)c(OCCCCN(C)Cc2ccccc2)c(C)c1	6	8	-11	0.6	9	3518	6
Cc1sc(NC(=O)CN2CCCC2)nc1-c1ccc2c(c1)CCN2C(=O)c1cccc(F)c1	7	7	-16	4.0	10	5911	3
CCN(CC)CCCN=Cc1c(-c2ccccc2)[nH]n(-c2nc3ccccc3s2)c1=O	0	8	-16	6.0	8	4145	4
O=C(CCn1c(=S)[nH]c2cc3c(cc2c1=O)OCO3)N1CCc2ccccc2C1	-4	9	nt	2.1	-3	nt	-1
COc1cc(NC(=O)C(c2ccccc2)c2ccccc2)c(C(=O)O)cc1OC	11	-2	-34	3.7	0	3278	4
Cc1nn(-c2ccc(Cl)cc2)c(=O)c2ccccc12	13	2	-63	5.1	8	4966	4
CC(CC(=O)Nc1ccc2c(c1)OCCO2)=NNC(=O)c1ccccn1	12	6	nt	4.2	4	nt	nt
CCOC(=O)CSc1ccc(S(=O)(=O)N(C)C2CCCCC2)cc1[N+](=O)[O-]	13	14	-37	2.1	-1	8184	-5
CCOCC(=O)Nc1ccccc1C(=O)N1CCOCC1	5	-2	-10	-1.8	-12	1920	3
N#C/C(=C/c1ccc(-c2ccc([N+](=O)[O-])cc2)o1)c1nnc(N2CCOCC2)n1-c1ccccc1	11	4	0	6.6	1	3453	nt
O=C(O)c1ccccc1/C=N/NC(=S)NC1CCCCC1	nt	nt	3	nt	nt	4396	2
CC(C)n1nc(C(=O)NC2CCCCCC2)c2ccccc2c1=O	1	3	-4	1.8	0	3068	nt
COc1ccc2c(c1)OC(c1ccc3c(c1)OCO3)C(O)C2=O (stereo not given)	21	7	nt	6.8	-3	nt	nt
CCCCC(=O)Nc1ccc2c3c(cccc13)CC2	10	5	-11	0.5	-1	2388	-11
CCOc1cc(CNCc2ccccn2)cc(Cl)c1OCC	1	-1	3	3.3	6	4013	-2
CCOC(=O)N1CCN(S(=O)(=O)N2CCCC(C(=O)NCCCN3CC(C)CC(C)C3)C2)CC1 (stereo not given)	-7	-7	-9	2.7	7	4434	2
COC(=O)CC1=C(c2ccc([N+](=O)[O-])cc2)CCC1=O	4	-1	-25	5.2	6	3961	nt
COc1ccc(CC2(CO)CCN(S(=O)(=O)c3cccc4cccnc34)CC2)cc1	12	0	-14	4.5	3	3638	0
CC(C)C(C)(C#N)NC(=O)CN1C(=O)NC2(CCCc3ccccc32)C1=O (stereo not given)	3	-3	-16	-3.6	3	6297	-6
COc1cc(C(=O)NNc2nc3cc4c(cc3s2)OCO4)cc(OC)c1OC	5	4	-6	-8.0	-8	5397	-4
CCOC(=O)c1c(C)[nH]c(C(=O)CSc2nc(C)cc(C)n2)c1C	14	7	-20	2.0	5	3116	-5
CC[C@]12c3[nH]c4ccc(Cl)cc4c3CCN1C(=O)[C@@H](CC(=O)NCCCn1ccnc1)C[C@@H]2C(=O)N1CCN(C(=O)C2CC2)CC1	0	3	-3	0.4	-2	3694	nt
COc1ccc(Nc2ccc(S(=O)(=O)N3CCCCCC3)cc2[N+](=O)[O-])cc1	2	-5	-28	1.2	-13	1868	14
Cc1c(NC(=O)c2ccc(Br)s2)c(=O)n(-c2ccccc2)n1C	-11	3	-17	-1.6	-3	4339	2
Cc1cc(NC(=O)COC(=O)C2COc3ccccc3O2)no1 (stereo not given)	6	-1	-7	5.3	13	3870	-5
CCOc1ccc(-c2cc(CCCC(=O)Nc3cc(OC)ccc3OC)no2)cc1	5	12	16	1.5	8	9945	-7
CN(C)Cc1c(C(C)(C)O)[nH]c2ccc(C(F)(F)F)cc12	2	6	-23	0.1	-1	3515	nt
COc1cccc(NC(=O)CN(C)C(=O)/C=C/c2cc(OC)ccc2OC)c1	10	4	-17	5.8	6	2146	2
Cn1c(=O)c(C(=O)c2ccccc2)c(O)c2ccccc21	14	-1	nt	5.3	3	4377	-5
CCCS(=O)(=O)c1nc(S(=O)(=O)c2ccc(C)cc2)c(NCCCn2ccnc2)s1	-3	8	-8	-3.7	0	5612	-3
COc1ccc(N2C(=O)CC(Sc3nc(C)cc(C)c3C#N)C2=O)cc1 (stereo not given)	4	0	-17	5.0	1	11268	-4
CCOC(=O)C1=C(COC(=O)CCc2ccc(F)cc2)NC(=O)NC1C (stereo not given)	-4	-4	-3	0.5	-5	4067	nt
CC1CCN(C(=O)c2cc(N3C(=O)C4C5CCC(C5)C4C3=O)ccc2Cl)CC1 (stereo not given)	7	16	nt	5.6	2	nt	-3
C#CCOCCOCCOCCNc1nc(N2CCOCC2)nc(N2CCN(C(=O)C(C(C)CC)n3cc(C(N)CC(C)C)nn3)CC2)n1 (stereo not given)	2	-5	nt	0.6	-7	nt	nt
CCn1cc(Cl)c(C(=O)Nc2ccc(OC)c(OC)c2)n1	0	1	-41	3.2	18	1879	-3
CC(C)NC(=O)COC(=O)c1ccc(Cl)c(S(N)(=O)=O)c1	-2	3	-7	4.5	2	3409	7
COc1ccc(Cc2nnc(NC(=O)c3cccs3)s2)cc1	-2	9	-20	15	-2	nt	-12
O=C(C1=CC(C2CCCCC2)CC(OCc2ccc(CO)cc2)O1)N1CCN(Cc2ccccc2)CC1 (stereo not given)	11&11	7&13	nt	7.7&13	9&10	nt	nt
COc1ccc(NC(=O)N2CCCC2C(=O)Nc2ccccc2)cc1 (stereo not given)	8	4	-24	1.5	-2	2796	-4
COc1ccc(SCc2noc(C(=O)NCC3CCCO3)c2C(=O)O)cc1 (stereo not given)	5	7	-9	1.3	-14	3929	13
CCOc1ccc(/C=C2\SC(=S)N(NS(=O)(=O)c3ccccc3)C2=O)cc1OC	6	-5	-6	61	32	3839	-9
Cc1ccc(C(=O)OCC(=O)N(C)c2ccccc2)c(C)c1	-3	14	-22	0.9	5	3693	2
CCOC(=O)C1(CCOc2ccccc2)CCN(Cc2cccc3nonc23)CC1	14	13	-23	15	6	3324	-2
COc1ccccc1OCCCC(=O)NCc1ccco1	10	2	-2	2.7	2	4491	-5
Cc1ccc(-c2nnc(OCC3CCCO3)c3ccccc23)cc1 (stereo not given)	3	14	-4	2.4	1	4136	2
O=S(=O)(Cc1ccccc1)N1CCN(c2ccccc2)CC1	18	7	-21	3.3	-9	3689	-15
COC(=O)C1=C(C(=O)OC)C2N(C)c3ccc(OC)cc3[C@@]23CC(C(=O)OC)N=C3N1 (stereo not given in full)	12	0	nt	9.3	1	nt	nt
Cc1ccc(C)c(N2CN(Cc3ccco3)CNC2=S)c1	7	4	-5	5.9	8	7465	-2
CCC(C)c1ccc(N2C(=O)NC(=O)/C(=C/c3cccn3CCOc3ccc(C)cc3)C2=O)cc1 (stereo not given)	8	4	-3	-4.6	-4	2054	3
Cc1c(-c2nc(-c3ccc(C(C)(C)C)cc3)no2)n(C)oc1=O	20	24	9	3.3	9	nt	-5
Cc1ccc(S(=O)(=O)N(CC(=O)Nc2cccc([N+](=O)[O-])c2)C(=O)N2CCN(C)CC2)cc1	-2	3	-10	-0.3	4	16418*	3
O=C(CS(=O)(=O)c1ccccc1)Nc1ncc([N+](=O)[O-])s1	13	16	-22	20	16	3504	4
COc1cccc(C(=O)Cn2c(NCCCO)nc3ccccc32)c1	6	-2	-31	2.3	1	3528	-12
O=C(O)C1CCCCC1C(=O)Nc1nc(-c2cccs2)cs1 (stereo not given)	nt	nt	-25	2.8	-7	5127	8

(more compounds)
SMILES	Mtb hypoxia inh	Mtb hypoxia inh growth	PrP 5UTR inh	RN4220 kill	Sa ugtP lethal	Autofluor counter	BJeLR viability
O=C(Cn1cnc2ccccc2c1=O)NCc1ccco1	-5	4	-34	-1.1	1	9767	-5
N#Cc1cc(C(=O)c2cc(Br)ccc2O)cn(C2CCCCC2)c1=O	-7	7	nt	-2.1	1	11141	7
CNC(=S)N(CCCO)Cc1cc2cc3c(cc2[nH]c1=O)OCO3	-3	1	-27	2.6	3	3030	-3
Cc1ccc(CC2S/C(=N/c3ccccn3)NC2=O)cc1 (stereo not given)	nt	nt	-25	nt	nt	2957	-3
CC(C)Cc1nc(SCc2cccnc2)c2c(=O)n(C)c(=O)n(C)c2n1	-14	-7	-12	1.8	-4	3382	-5
CCN(CC)S(=O)(=O)c1ccc(N2CCOCC2)c(NC(=O)CC(C)(C)C)c1	6	2	-10	3.3	9	4595	9
CCn1cc(SCC(=O)N2CCc3ccccc32)c2ccccc21	5	10	-14	8.2	1	5356	-6
C/C(=N\Nc1ccccc1[N+](=O)[O-])c1ccc(N2CCOCC2)cc1	nt	nt	-77	nt	nt	4498	-11
CCCCn1c2nc3ccccc3nc2c2c(=O)n(C(C)CC)cnc21 (stereo not given)	-1	15	0	6.0	-35	10649	17
CN(C)S(=O)(=O)c1cccc(NC(=O)CSc2cccc3cccnc23)c1	-2	9	-7	1.4	13	5487	2
CCN(CC(=O)Nc1cc(Cl)ccc1C)C(=O)C1CC1	14	2	-37	6.9	5	2858	nt
COc1ccccc1-c1cc(C(=O)N/N=C/c2cccs2)c2ccccc2n1	nt	nt	-13	nt	nt	3772	7
CC1(C)CC(=O)c2sc(NC(=O)c3ccccc3)nc2C1	8	9	nt	9.9	1	nt	1
S=c1[nH]ncn1N=Cc1ccccn1	6	-4	nt	1.8	-1	nt	nt
O=C(NNC(=O)c1ccc(S(=O)(=O)N2CCCC2)cc1)c1ccc(Br)cc1	-1	0	-25	2.5	-1	4886	nt
C#CCOCCOCCOCCNc1nc(N2CCN(C(=O)C(CCC(=O)O)n3cc(C(N)CC(C)C)nn3)CC2)nc(N2CCN(C(=O)C(C(C)CC)n3cc(C(N)CC(C)C)nn3)CC2)n1 (stereo not given)	-1	4	nt	7.9	0	nt	nt
O=S1(=O)N=C(N2CCN(c3ccc(F)cc3)CC2)c2ccccc21	5	1	-24	4.8	11	11588	3
CN(CC(=O)OCC(=O)NCC(F)(F)F)S(=O)(=O)c1ccc(Cl)cc1	-6	9	-14	-3.2	-2	3339	2
NC(=NOC(=O)CC1CCCCC1)c1cccc([N+](=O)[O-])c1	7	3	nt	0.9	4	nt	nt
COc1cc(/C=C2/NC(=O)N(Cc3ccccc3F)C2=O)cc(OC)c1O	nt	nt	-23	nt	nt	2190	1

In the list so far, 4 have a cyano group:
SMILES	Mtb hypoxia inh	Mtb hypoxia inh growth	PrP 5UTR inh	RN4220 kill	Sa ugtP lethal	Autofluor counter	BJeLR viability
N#C/C(=C/c1ccc(-c2ccc([N+](=O)[O-])cc2)o1)c1nnc(N2CCOCC2)n1-c1ccccc1	11	4	0	6.6	1	3453	nt
CC(C)C(C)(C#N)NC(=O)CN1C(=O)NC2(CCCc3ccccc32)C1=O (stereo not given)	3	-3	-16	-3.6	3	6297	-6
COc1ccc(N2C(=O)CC(Sc3nc(C)cc(C)c3C#N)C2=O)cc1 (stereo not given)	4	0	-17	5.0	1	11268	-4
N#Cc1cc(C(=O)c2cc(Br)ccc2O)cn(C2CCCCC2)c1=O	-7	7	nt	-2.1	1	11141	7

More results:
SMILES	Mtb hypoxia inh	Mtb hypoxia inh growth	PrP 5UTR inh	RN4220 kill	Sa ugtP lethal	Autofluor counter	BJeLR viability
CS(=O)(=O)N(CC(=O)N1CCCCCC1)c1ccccc1	nt	nt	3	0.6	7	3346	3
CC1CCN(CCCNC(=O)c2cc3sccc3n2C)CC1	6	-8	-28	-0.3	-14	20532*	0
NC(=O)c1ccc(N2CCCCC2)c(N2C(=O)C3C4C=CC(C4)C3C2=O)c1 (stereo not given)	5	4	-10	-6.6	-3	2814	19
CCOC(=O)N1CCN(C(=O)c2ccc(Cn3c(=S)[nH]c4cc5c(cc4c3=O)OCO5)cc2)CC1	2	8	-20	3.7	1	5802	-2
Cc1ccccc1NS(=O)(=O)c1ccc(NC(=O)N2CCCCC2)cc1	1	0	-14	3.2	-3	5534	4
